SARS PLpro yeast – qHTS of Yeast-based Assay for SARS-CoV PLP | S. cerevisiae expressing SARS-CoV PLpro, growth rescue; control for the full effect not named in the record | Potency, µM (highest dose often 32.9 µM), inactives show at the highest dose activity, positive = growth rescue | actives 0.19% (n = 330,000); further: 0% is about no effect; nearly all actives have a fitted effect of over 55% in size; growth read by luminescence after 48 h
Lassa entry inh – qHTS for Inhibitors of binding or entry into cells for Lassa Virus | Potency, µM (highest dose often 37.9 µM), inactives show at the top dose activity change, negative = inhibition, usual class: inhibitors | Lassa virus pseudotype entry inhibition, cell reporter; control for the full effect not named in the record | AID 540256, 2011 | actives 1.2% (n = 300,000); active means well fitted inhibition curve with a large enough effect; inconclusive means small, poorly fitted or top-dose-only effect, or effect the other way; inactive means flat fitted curve, though single readings scatter; tested in HEK293 cells; further: on the % scale 0 is the no-effect control and ±100 the full control effect; nearly all actives have a fitted effect of over 50% in size; luciferase read-out
StopGo reporter – High Throughput Screening for Foot and Mouth Disease Virus Antivirals; human cells with a luciferase reporter of 2A StopGo recoding; control for the full effect not named in the record; Potency, µM (top dose mostly 57.9 µM), inactives show at the highest dose signal change, negative = less light; actives 1.2% (n = 410,000); active = well fitted falling curve with a large enough effect; inconclusive = small, poorly fitted or top-dose-only effect; inactive = no such curve, though single readings can be large or run the other way; tested in HEK293T cells; further: on the % scale 0 is the no-effect control and ±100 the full control effect; nearly all actives have a fitted effect of over 45% in size; luciferase light after 4 h
Cruzain inh noDet – qHTS Assay for Promiscuous and Specific Inhibitors of Cruzain (without detergent) | Cruzipain (Trypanosoma cruzi), P25779 | purified cruzain, Z-FR-AMC fluorescence, no detergent | Potency, µM, for inactives: max response, negative = inhibition, usual class: inhibitors | actives 2.3% (n = 200,000) | AID 1476, 2009; active means well fitted curve in the direction sought with a large enough effect; inconclusive means small, poorly fitted or top-dose-only effect, or another doubt; inactive means no such curve, though single readings can be large; an effect the other way counts as inactive or inconclusive;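 further: plate controls were enzyme without inhibitor for no effect and buffer without enzyme for full effect; nearly all actives have a fitted effect of over 40% in size; top concentration of the series not given in the record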
Target sequence (P25779 123-467 limits assumed): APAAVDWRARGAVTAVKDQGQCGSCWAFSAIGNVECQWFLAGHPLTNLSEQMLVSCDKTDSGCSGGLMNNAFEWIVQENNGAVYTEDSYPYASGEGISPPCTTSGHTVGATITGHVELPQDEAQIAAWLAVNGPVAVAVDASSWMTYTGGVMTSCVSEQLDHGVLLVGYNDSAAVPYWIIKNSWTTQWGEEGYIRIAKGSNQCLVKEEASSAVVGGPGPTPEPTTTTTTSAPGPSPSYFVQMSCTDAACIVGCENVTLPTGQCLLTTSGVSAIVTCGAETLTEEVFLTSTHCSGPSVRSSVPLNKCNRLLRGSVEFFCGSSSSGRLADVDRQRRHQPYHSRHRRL
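Purified cruzain at 1.5 nM, pre-incubated 15 min with compound at room temperature in 100 mM sodium acetate pH 5.5, 5 mM DTT, 0.00005% Triton X-100. Reaction started with 2 uM Z-FR-AMC; AMC fluorescence increase over 60 s gives rate.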
RE007 growth inh – qHTS Assay for Inhibitors of the HIV-1 protein Vpr; S. pombe RE007 Vpr strain, BacTiter-Glo ATP luminescence, 24 h; control for the full effect not named in the record; actives 0.21% (n = 360,000); AID 651644, 2012; Potency, µM (titrated, usually from 92.2 µM), without a hit: at the top dose activity change, negative = less growth; active = well fitted falling curve with a large enough effect; inconclusive = small, poorly fitted or top-dose-only effect; inactive = no such curve, though single readings can be large or run the other way;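 further: on the % scale 0 is the no-effect control and ±100 the full control effect; nearly all actives have a fitted effect of over 50% in size; the assay follows cell death caused by Vpr and the record does not say whether a fall means rescue or toxicity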
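Fission yeast strain RE007, carrying one chromosomally integrated HIV-1 vpr copy, was seeded at OD 0.01 in PMG+AL medium with 23 nL pinned compound. After 24 h at 30 °C and 99% humidity, viability was read by BacTiter-Glo luminescence.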
Cruzain inh Det – qHTS Assay for Promiscuous and Specific Inhibitors of Cruzain (with detergent); purified cruzain, Z-FR-AMC fluorescence, 0.01% Triton; Cruzipain (Trypanosoma cruzi), P25779; actives 0.43% (n = 200,000); Potency, µM, without a hit: max response, negative = inhibition, most hits filed as inhibitors; active means well fitted curve in the direction sought with a large enough effect; inconclusive means small, poorly fitted or top-dose-only effect, or another doubt; inactive means no such curve, though single readings can be large; an effect the other way counts as inactive or inconclusive;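 further: plate controls were neutral wells for no effect and buffer without enzyme for full effect; nearly all actives have a fitted effect of over 40% in size; top concentration of the series not given in the record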
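Z-FR-AMC hydrolysis (2 uM substrate) by cruzain (1.5 nM) monitored kinetically at ex 360/em 450 nm after 15 min room-temperature compound exposure; 0.01% Triton X-100, pH 5.5, 5 mM DTT.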
NS1 function inh – qHTS Assay for Inhibitors of Influenza NS1 Protein Function | Potency, µM (highest dose often 46.1 µM), for inactives: at the highest dose activity, positive = more growth | S. cerevisiae slowed by influenza A NS1, growth recovery by OD600 | actives 0.4% (n = 270,000); further: actives are rising curves; nearly all actives have a fitted effect of over 50% in size
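Read-out: OD600 growth recovery of NS1-expressing budding yeast. Cells grown overnight at 30C in -URA glucose medium, washed, resuspended and diluted 1:100 in 2% galactose assay medium, pH 6.0. Same strain lacking NS1 served as positive control.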
Marburg entry inh – qHTS for inhibitors of binding or entry into cells for Marburg Virus; Marburg virus pseudotyped entry inhibition, cell reporter; control for the full effect not named in the record; about a third of the inactives were read at about 46 µM; Potency, µM (highest dose often 37.8 µM), without a hit: at the highest dose activity change, negative = inhibition, actives largely listed as inhibitors; actives 1.8% (n = 300,000); active = well fitted inhibition curve with a large enough effect; inconclusive = small, poorly fitted or top-dose-only effect, or effect the other way; inactive = flat fitted curve, though single readings scatter; tested in HEK293 cells; about a fifth of its hits are not listed in these tables; further: on the % scale 0 is the no-effect control and ±100 the full control effect; luciferase read-out
The depositor's hits bear a star; & = joins results of further samples; [ ] = dose if it differs, or a comment. Unless noted, the call rests on the fitted dose curve; in most records, active means well fitted rising curve with a large enough effect; inconclusive means small, poorly fitted or top-dose-only effect; inactive means no such curve, though single readings can be large or run the other way. Potency means the concentration at half of the fitted maximal effect.

Results for Cc1c(C(=O)c2ccc3c(c2)OCO3)ccc2c1OCO2 ?
Lassa entry inh: 2%[46.1 µM]; StopGo reporter: 18%; RE007 growth inh: -9%; Marburg entry inh: -20%

How did c1ccc(Oc2cccc(Oc3ccccc3)n2)cc1 do in these assays?
Lassa entry inh: 2%; StopGo reporter: 17%; RE007 growth inh: -4%; Marburg entry inh: 11%

How did CCNc1nc(Oc2ccc(C#N)cc2)cc(C(F)(F)F)n1 do in these assays?
SARS PLpro yeast: -3%; Lassa entry inh: -20%; StopGo reporter: 0%; RE007 growth inh: 5%; NS1 function inh: -3%; Marburg entry inh: inconclusive

How did COc1cccc(NC(=O)CCc2nc(-c3ccc(C(C)(C)C)cc3)no2)c1 do in these assays?
Lassa entry inh: inconclusive; StopGo reporter: inconclusive; Cruzain inh noDet: 0%; Cruzain inh Det: -18%; Marburg entry inh: inconclusive

Results for Cc1cccc(NC(=O)c2c(N)sc3c2CCC(C)C3)c1 (stereo not given) ?
Lassa entry inh: 4%[46.1 µM]; StopGo reporter: 42%[activator]; Cruzain inh noDet: -10%; Cruzain inh Det: -6.1%; Marburg entry inh: inconclusive

What do the screens show for `COCCSc1nc2c(c(=O)[nH]c(=O)n2C)n1CCC(C)C`?
SARS PLpro yeast: -3%; StopGo reporter: -25%; Cruzain inh noDet: 18%; RE007 growth inh: 6%; Cruzain inh Det: 0.4%; NS1 function inh: -4%

What do the screens show for `CCN(CC)CC(O)CN1c2ccccc2Sc2ccccc21` (stereo not given)?
SARS PLpro yeast: 1%; Lassa entry inh: inconclusive; StopGo reporter: -10%; RE007 growth inh: 12%; NS1 function inh: -1%; Marburg entry inh: 3.2µM*

How did COc1ccc(CNC(=O)COC(=O)CCCOc2ccc(Cl)cc2Cl)cc1OC do in these assays?
SARS PLpro yeast: -25%; Lassa entry inh: 4%; StopGo reporter: 0%; Cruzain inh noDet: inconclusive; RE007 growth inh: -7%; Cruzain inh Det: -4.5%; NS1 function inh: -64%; Marburg entry inh: inconclusive

How did CSc1ncccc1C(=O)OCC(=O)NCCC1=CCCCC1 do in these assays?
SARS PLpro yeast: -2%; Lassa entry inh: -2%; StopGo reporter: 15%; RE007 growth inh: 1%; Marburg entry inh: 29%

Results for CCCCN(C)CCCNC(=O)c1ccc2c(c1)N(CC)C(=O)c1ccccc1S2=O (stereo not given) ?
SARS PLpro yeast: -2%; Lassa entry inh: -13%; StopGo reporter: -3%; RE007 growth inh: 6%; NS1 function inh: -1%; Marburg entry inh: -1%

How did CCOc1cc(C)nc(NCc2ccccc2)n1 do in these assays?
SARS PLpro yeast: -5%; Lassa entry inh: 2%; StopGo reporter: 7%; Cruzain inh noDet: -3%; RE007 growth inh: -5%; Cruzain inh Det: 1.9%; NS1 function inh: -11%; Marburg entry inh: -19%

Results for COc1cccc(-n2nc(C(=O)NCC3CCCO3)c3ccccc3c2=O)c1 (stereo not given) ?
SARS PLpro yeast: -4%; StopGo reporter: 12%; RE007 growth inh: -1%; NS1 function inh: -5%

How did COc1ccccc1NC(=O)/C=C/c1cc([N+](=O)[O-])ccc1OC(F)F do in these assays?
SARS PLpro yeast: 2%; StopGo reporter: -11%; RE007 growth inh: 3%; NS1 function inh: inconclusive

What do the screens show for `O=C(COC(=O)Cc1c(F)cccc1Cl)NCc1ccc2c(c1)OCO2`?
SARS PLpro yeast: 9%; Lassa entry inh: 8%; StopGo reporter: -2%; RE007 growth inh: 9%; Marburg entry inh: -3%

How did CCOC(=O)N1CCc2c(sc(NCc3cccc(F)c3)c2C(=O)Nc2ccccc2OCC)C1 do in these assays?
Lassa entry inh: -24%[46.1 µM]; StopGo reporter: -6%; Cruzain inh noDet: inconclusive; Cruzain inh Det: -9.0%

Results for Cc1nc2ccc(S(=O)(=O)NC(C(=O)NCc3ccc4c(c3)OCO4)C(C)C)cc2s1 (stereo not given) ?
SARS PLpro yeast: 1%; StopGo reporter: -11%; Cruzain inh noDet: 11%; RE007 growth inh: 7%; Cruzain inh Det: -2.5%; NS1 function inh: 4%

How did COc1ccc(-n2c(/C=C/c3cccc4ccccc34)nc3ccccc3c2=O)cc1OC do in these assays?
Lassa entry inh: 23%[46.1 µM]; StopGo reporter: -19%; Cruzain inh noDet: inconclusive; Cruzain inh Det: -2.8%

How did O=C(NCC(c1ccc2c(c1)OCO2)N1CCN(c2ccc(F)cc2)CC1)c1cccc([N+](=O)[O-])c1 (stereo not given) do in these assays?
Lassa entry inh: -21%[46.1 µM]; StopGo reporter: inconclusive; Cruzain inh noDet: 1%; Cruzain inh Det: -6.4%

What do the screens show for `COCCNC(=O)c1onc(CSc2ccc(Cl)cc2)c1C(=O)O`?
SARS PLpro yeast: 1%; StopGo reporter: -6%; Cruzain inh noDet: -6%; RE007 growth inh: -10%; Cruzain inh Det: -0.9%; NS1 function inh: 17%

What do the screens show for `CN1c2ccccc2N(C)C1c1c(O)ccc2ccccc12`?
SARS PLpro yeast: 16%; Lassa entry inh: 13%; StopGo reporter: 8%; Cruzain inh noDet: -2%; RE007 growth inh: -1%; Cruzain inh Det: -1.5%; NS1 function inh: 0%; Marburg entry inh: -16%&-16%

Results for Cc1cccc(C)c1Nc1nnc(SCc2cn3cccc(C)c3n2)s1 ?
SARS PLpro yeast: -10%; StopGo reporter: 0%; Cruzain inh noDet: 12%; RE007 growth inh: -2%; Cruzain inh Det: 0.4%; NS1 function inh: -12%; Marburg entry inh: 1%

How did CCCC1(C(=O)OC)NC(c2cccc(F)c2)C2C(=O)N(CC)C(=O)C21 (stereo not given) do in these assays?
SARS PLpro yeast: 0%; Lassa entry inh: -16%; StopGo reporter: 4%; Cruzain inh noDet: 1%; RE007 growth inh: 0%; Cruzain inh Det: 4.3%; NS1 function inh: 2%; Marburg entry inh: 11%

How did NC(N)=Nc1nc(C2COc3ccccc3O2)cs1 (stereo not given) do in these assays?
SARS PLpro yeast: -2%; Lassa entry inh: -10%; StopGo reporter: -1%; Cruzain inh noDet: 10%; RE007 growth inh: 5%; Cruzain inh Det: -3.7%; NS1 function inh: -4%; Marburg entry inh: 26%[46.1 µM]

Results for COCCn1c(SCC(=O)Nc2ccc(NC(=O)c3ccco3)c(OC)c2)nc2ccccc2c1=O ?
SARS PLpro yeast: 2%; Lassa entry inh: inconclusive; Cruzain inh noDet: inconclusive; RE007 growth inh: 4%; Cruzain inh Det: 12%; NS1 function inh: 1%; Marburg entry inh: inconclusive

Results for CCOP(=S)(OCC)Oc1cc(C)oc(=O)c1Cl ?
SARS PLpro yeast: 1%; Lassa entry inh: 6%[46.1 µM]; StopGo reporter: -18%; RE007 growth inh: -20%; NS1 function inh: 3%; Marburg entry inh: inconclusive

What do the screens show for `Cc1cccn2c(=O)nc(SCC(=O)N3CCCC3)nc12`?
SARS PLpro yeast: 0%; Lassa entry inh: 3%; StopGo reporter: -8%; RE007 growth inh: -11%; Marburg entry inh: -4%[46.1 µM]

How did COC(=O)CCC(C)N1CCC(Oc2ccc(C(=O)N3CCCC3)cc2)CC1 (stereo not given) do in these assays?
SARS PLpro yeast: -1%; StopGo reporter: -6%; RE007 growth inh: -9%; NS1 function inh: -3%

Results for Cc1cc(NC(=O)CSc2ncc(C(=O)Nc3ccccc3)c(=O)n2C)no1 ?
Lassa entry inh: 22%[46.1 µM]; StopGo reporter: 12%; Cruzain inh noDet: -1%; Cruzain inh Det: -0.4%

Results for O=C(Nc1ccccc1C(F)(F)F)c1noc2c1CCCC2 ?
Lassa entry inh: 6%[46.1 µM]; StopGo reporter: 31%[activator]; Cruzain inh noDet: -16%; Cruzain inh Det: -4.4%; Marburg entry inh: inconclusive

What do the screens show for `C/C(=C/Cc1c(O)cc2oc(C)cc(=O)c2c1O)COC1OC(CO)C(O)C(O)C1O` (stereo not given)?
SARS PLpro yeast: 6%; Lassa entry inh: 18%; StopGo reporter: -5%; Cruzain inh noDet: -1%; RE007 growth inh: 28%; Cruzain inh Det: -1.9%; NS1 function inh: -17%; Marburg entry inh: 26%

How did O=C(NC(=S)Nc1nc(-c2ccc(Cl)cc2)cs1)c1cccs1 do in these assays?
SARS PLpro yeast: 1%; Lassa entry inh: 18%; StopGo reporter: 51%[activator]; RE007 growth inh: 5%; Marburg entry inh: 14%[46.1 µM]

How did O=c1[nH]c(CN2CCCCC2)nc2c1C1(CCCCC1)Cc1ccccc1-2 do in these assays?
SARS PLpro yeast: -4%; Lassa entry inh: -12%; StopGo reporter: -27%; Cruzain inh noDet: -11%; RE007 growth inh: 25%; Cruzain inh Det: 6.2%; NS1 function inh: 0%; Marburg entry inh: inconclusive

Results for Cc1cccc(NC(=S)N2CCC(C(=O)c3ccc(F)cc3)CC2)c1 ?
Lassa entry inh: 2%[46.1 µM]; StopGo reporter: 11%; RE007 growth inh: -16%; Marburg entry inh: inconclusive

How did CC(=O)c1cc(-c2ccccc2)n(CC(=O)NC2CCCCCC2)c1C do in these assays?
Lassa entry inh: 13%[46.1 µM]; StopGo reporter: 9%; Cruzain inh noDet: -4%; Cruzain inh Det: 1.2%

What do the screens show for `O=C(O)c1ccccc1NCc1ccco1`?
SARS PLpro yeast: 0%; StopGo reporter: -2%; RE007 growth inh: 8%; NS1 function inh: -10%

How did COc1ccc(CN2CCN(C(=O)c3ccco3)CC2)cc1OCc1ccccc1 do in these assays?
SARS PLpro yeast: 1%; Lassa entry inh: inconclusive; StopGo reporter: -27%; Cruzain inh noDet: -4%; RE007 growth inh: 1%; Cruzain inh Det: 7.6%; NS1 function inh: -3%; Marburg entry inh: inconclusive

Results for Clc1ccc(Nc2ccc(-n3ccnc3)nn2)cc1Cl ?
SARS PLpro yeast: -27%; Lassa entry inh: -20%; StopGo reporter: -12%; Cruzain inh noDet: inconclusive; RE007 growth inh: 44%; Cruzain inh Det: -14%; NS1 function inh: -77%; Marburg entry inh: -3%

Outcome played no part in choosing rows. About 4.5% of those tested had a hit in this group.
